Compound activity: PubChem, several laboratories
HSV replic up: enhancers of HSV replication in host cells, fold increase, host cell viability; AID 1956, 2009; HSV replication augmentation in cells; 220,000 tested, 0.005% active; maximum fold increase;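 active = peak rise of 1.5-fold or more in the series; tested in PC3 cells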;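 also: first round at 10 µM; read as green reporter fluorescence; hits show the peak of a series up to 25 µM; 1 = signal of infected wells without compound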
Insulin prom inh: inhibitors of insulin promoter-driven GFP, primary screen, imaging, TRM-6 cells (human fetal islet line), eGFP reporter, cell count | reporter expression induced with tamoxifen | inhibition, % at 2 µM | 130,000 tested, 0.9% active;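 active = inhibition above the mean plus 3 SD, with well images judged a real hit on visual review, cut at about 60% in these data, passing the limit was not always enough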
GALR2 agonist: GALR2 receptor agonists, primary screen, cell-based. GALR2-expressing cells, agonist activation read-out. activation, %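 (tested at 5 µM)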. 140,000 tested, 0.48% active;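 active = above mean plus 3 SD of all compounds, about 5% in these data, not always enough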;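 also: 0% = vehicle buffer wells and 100% = reference agonist at full effect; tested in CHO reporter cells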
PKD1 inh: inhibitors of human PKD1 kinase, biochemical, fluorescence polarization; PKD1 kinase fluorescence polarization assay; inhibition, %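 (about 10 µM by stock and volumes)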; 200,000 tested, 0.056% active; AID 797, 2007;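 active = inhibition of 50% or more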;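 also: controls were vehicle for no effect and a reference inhibitor for full effect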
Target sequence (Q15139 whole entry, looked up): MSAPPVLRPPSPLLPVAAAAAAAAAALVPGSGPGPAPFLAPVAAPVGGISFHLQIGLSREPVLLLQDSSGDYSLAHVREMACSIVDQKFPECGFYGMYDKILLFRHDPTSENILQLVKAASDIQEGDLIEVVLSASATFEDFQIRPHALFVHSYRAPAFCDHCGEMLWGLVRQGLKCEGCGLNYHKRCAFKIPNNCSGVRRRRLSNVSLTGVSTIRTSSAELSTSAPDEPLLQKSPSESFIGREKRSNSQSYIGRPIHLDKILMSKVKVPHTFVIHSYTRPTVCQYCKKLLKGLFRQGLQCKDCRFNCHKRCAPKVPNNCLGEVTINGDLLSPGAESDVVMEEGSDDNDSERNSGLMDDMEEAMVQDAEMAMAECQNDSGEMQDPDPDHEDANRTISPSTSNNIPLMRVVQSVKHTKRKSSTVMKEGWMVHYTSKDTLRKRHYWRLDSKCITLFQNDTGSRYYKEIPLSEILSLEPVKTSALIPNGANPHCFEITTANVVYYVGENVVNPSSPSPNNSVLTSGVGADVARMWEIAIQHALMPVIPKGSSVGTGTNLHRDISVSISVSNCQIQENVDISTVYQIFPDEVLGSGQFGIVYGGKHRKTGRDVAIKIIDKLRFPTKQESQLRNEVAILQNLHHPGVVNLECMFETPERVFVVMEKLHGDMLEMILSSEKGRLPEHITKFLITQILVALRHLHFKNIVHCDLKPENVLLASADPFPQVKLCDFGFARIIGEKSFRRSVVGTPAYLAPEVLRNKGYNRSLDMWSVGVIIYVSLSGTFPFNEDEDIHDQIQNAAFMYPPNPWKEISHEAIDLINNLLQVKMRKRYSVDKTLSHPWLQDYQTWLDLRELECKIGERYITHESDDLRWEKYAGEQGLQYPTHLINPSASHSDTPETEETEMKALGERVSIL
RGS16-Gao HTS: modulators of RGS16 binding to Galphao, primary screen, biochemical, human proteins, multiplexed bead flow cytometry | Regulator of G-protein signaling 16 (Homo sapiens) + Guanine nucleotide-binding protein … | bead-based flow cytometry RGS16-Galphao binding, fluorescence; actives lie on both sides | binding response (% of control), % at 10 µM | 220,000 tested, 0.38% active;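 active = below 25% or above 175%, edge rows of some plates excepted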;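 also: Galphao activated by GDP with aluminum fluoride before binding; 100% = wells without compound and 0% = beads without RGS; some results beyond the cut were filed as inactive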
Insulin prom inh cell count: also measured in Insulin prom inh; calls as there; normalized cell count, %; measured here: cell count, toxicity; reference of the scale not given here;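 cells exposed to compound for 48 h; stained nuclei by imaging scaled within each plate; lower means fewer cells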
HSV replic up primary fold: second read-out of HSV replic up, no call of its own (marks repeat the call); fold increase; compound at 10 µM; measured here: primary screen fold increase 10 uM; tested in PC3 cells;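 GFP signal in the first replicate; 1 = infected wells without compound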
An asterisk follows results filed as active; i = inactive; · = no result given.

SMILES | HSV replic up | HSV replic up primary fold | Insulin prom inh | Insulin prom inh cell count | GALR2 agonist | PKD1 inh | RGS16-Gao HTS
CCC(c1nnc(SCc2nc3ccccc3s2)n1Cc1ccccc1)N(C)C (stereo unspecified) | i | 0.91 | -42.9 | 85.5 | -2.4 | 2.0 | 99.9
CN(C)S(=O)(=O)c1cccc(NC(=O)c2ccc(OC(F)(F)F)cc2)c1 | i | 0.96 | -15.4 | 174.0 | -0.5 | -9.2 | 113.8
CCNC(=O)c1cc(Cl)ccc1OC | i | 1 | 0.0 | 108.4 | 0.1 | -14.4 | 107.5
CCC(CC)C(=O)Nc1cccc(C(=O)NC(C)(C)C)c1 | i | 0.87 | · | · | · | 2.6 | 106.0
CC(=O)c1ccc(N2CCCCC2)c(F)c1 | i | 1.03 | · | · | · | -4.9 | 99.4
Cc1[nH]c2ccccc2c1C(=O)COC(=O)c1cccc(S(=O)(=O)N2CCCCC2)c1 | i | 0.91 | 35.7 | 92.2 | 1.1 | -0.5 | 152.3
CCN(CC)S(=O)(=O)c1ccc(Cl)c(NC(=O)c2cc(Cl)ccc2Cl)c1 | i | 1.01 | · | · | 1.3 | -2.7 | 109.2
CCn1c(-c2ccccc2)csc1=Nc1ccc(S(=O)(=O)O)cc1 | i | 0.88 | 40.3 | 117.5 | -1.4 | -5.7 | 97.9
COc1ccc(S(=O)(=O)CCC(=O)Nc2c(C)n(C)n(-c3ccccc3)c2=O)cc1 | i | 0.94 | · | · | -0.9 | -20.1 | 102.5
O=c1c2ccccc2nnn1Cc1ccccc1Cl | i | 0.88 | · | · | · | -2.3 | 101.4
O/N=C/c1ccc2ccccc2c1 | i | 1.03 | · | · | · | -3.6 | 105.2
CN1CCC(C2(O)c3ccccc3CSc3sccc32)CC1 (stereo unspecified) | i | 0.77 | -252.4 | 66.8 | -2.1 | -1.2 | 112.6
O=C(Cn1c(CN2CCCCC2)nc2ccccc2c1=O)NCc1ccco1 | i | 0.89 | · | · | -0.6 | 5.6 | 162.1
COc1cccc(-c2nn(-c3ccccc3)cc2/C=C(/NC(=O)c2ccccc2)C(=O)O)c1 | i | 0.99 | · | · | · | · | 101.4
Nc1c(C(=O)c2ccc(Br)cc2)oc2ccccc12 | i | 1.05 | 46.7 | 121.4 | 1.1 | 15.0 | 103.4
CC(C)(CNC(=O)c1sc2cc(F)ccc2c1Cl)N1CCOCC1 | i | 0.95 | · | · | -1.3 | -1.1 | 108.2
CC(C)CN(C(=O)CSc1nncs1)c1c(N)n(CC(C)C)c(=O)[nH]c1=O | i | 1.03 | -2.9 | 117.7 | -0.7 | 3.7 | 98.3
CCOc1ccc(CNC2CCCc3ccccc32)cc1 (stereo unspecified) | i | 0.94 | · | · | · | -5.6 | 99.8
O=C(CSc1nc2ccccc2c(=O)n1CC1CCCO1)NCc1ccc2c(c1)OCO2 (stereo unspecified) | i | 0.91 | 0.0 | 130.2 | · | -0.6 | 101.7
O=C(NCCCn1ccnc1)/C(=C\c1cccs1)NC(=O)c1ccccc1 | i | 0.97 | · | · | -1.5 | 7.5 | 94.2
O=C(Cc1ccccc1)Nc1ccccc1CO | i | 0.89 | -50.0 | 76.6 | -0.9 | 2.5 | 76.6
CCOc1cc(NS(C)(=O)=O)c(OCC)cc1NC(=O)c1cccs1 | i | 0.8 | · | · | -0.6 | -3.5 | 99.4
Cc1ccc[n+](CC(=O)c2cc3ccccc3oc2=O)c1 | i | 1.05 | 20.8 | 138.1 | -0.6 | 2.6 | 97.0
COc1cc(-c2nnc(-c3cccnc3)o2)cc(OC)c1OC | i | 1 | · | · | 0.5 | -14.4 | 99.7
CCOC(=O)c1cn(Cc2ccc(Cl)cc2Cl)c2cc(C)nn2c1=O | i | 1.15 | · | · | · | · | 100.2
COc1ccc(NC(=O)CCS(=O)(=O)c2ccccc2)c(OC)c1 | i | 0.81 | -13.9 | 114.2 | -3.7 | 18.0 | 62.1
COCCn1cc(C(=S)N2CCCCC2)c2ccccc21 | i | 0.97 | · | · | · | -3.6 | 93.1
O=C(Cn1ccc([N+](=O)[O-])n1)NCc1ccco1 | i | 0.97 | · | · | -1.3 | -4.6 | 93.8
COc1ccc(C2CC(O)(c3ccccc3)Oc3c(C)ccc(C)c32)cc1 (stereo unspecified) | i | 0.81 | · | · | · | · | 99.4
CCOC(=O)Cc1nnc2c(Nc3ccc(C)cc3)nc3nonc3n12 | i | 0.95 | 10.5 | 69.0 | 2.2 | -9.2 | 102.5
CCC(C)NC(=S)NNC(=O)c1ccc(C(C)(C)C)cc1 (stereo unspecified) | i | 0.9 | · | · | -2.4 | -6.2 | 100.8
CC(C)NC(=O)COC(=O)c1cc(F)c(F)cc1Cl | i | 0.99 | 20.7 | 88.0 | -1.3 | 0.9 | 98.6
CC(=O)OCC(=O)Nc1ccc(C(C)=O)cc1 | i | 0.94 | -21.1 | 120.0 | -0.4 | -2.1 | 98.8
CCOC(=O)C1CCCN(C/C(O)=C(\C#N)c2nc(-c3ccccc3)cs2)C1 (stereo unspecified) | i | 1.18 | -14.3 | 193.6 | 0.1 | -2.8 | 101.4
CCC(C)[C@H](NC(=O)NCc1cccs1)C(=O)O (stereo partly specified) | i | 0.89 | · | · | -2.3 | -0.2 | 100.1
O=C1/C(=C/c2cccnc2)SC(=S)N1c1ccccc1 | i | 0.95 | · | · | -1.8 | -0.1 | 97.1
CCCSc1cc(N2CCOCC2)nc(-c2ccccc2Cl)n1 | i | 0.983 | 8.1 | 134.6 | -1.0 | -14.5 | 104.9
Cc1[nH]n(-c2nc(-c3ccccc3)cc(=O)[nH]2)c(=O)c1CCO | i | 0.93 | 13.3 | 80.7 | · | -0.8 | 100.6
CCCCSC(=O)Nc1ccccc1 | i | 0.86 | 40.6 | 97.0 | -0.7 | 2.3 | 104.4
O=C(NCCc1ccccc1)C(c1cccs1)N(C(=O)CCl)c1ccc(Cl)cc1 (stereo unspecified) | i | 0.72 | · | · | -1.0 | -7.7 | 105.2

Reprinted from the part before: 5 compounds; new compounds follow.
SMILES | HSV replic up | HSV replic up primary fold | Insulin prom inh | Insulin prom inh cell count | GALR2 agonist | PKD1 inh | RGS16-Gao HTS
O=C1/C(=C/c2cccnc2)SC(=S)N1c1ccccc1 | i | 0.95 | · | · | -1.8 | -0.1 | 97.1
CCCSc1cc(N2CCOCC2)nc(-c2ccccc2Cl)n1 | i | 0.983 | 8.1 | 134.6 | -1.0 | -14.5 | 104.9
Cc1[nH]n(-c2nc(-c3ccccc3)cc(=O)[nH]2)c(=O)c1CCO | i | 0.93 | 13.3 | 80.7 | · | -0.8 | 100.6
CCCCSC(=O)Nc1ccccc1 | i | 0.86 | 40.6 | 97.0 | -0.7 | 2.3 | 104.4
O=C(NCCc1ccccc1)C(c1cccs1)N(C(=O)CCl)c1ccc(Cl)cc1 (stereo unspecified) | i | 0.72 | · | · | -1.0 | -7.7 | 105.2
C#Cc1ccc([C@@H]2C=C(C(=O)NC3CC3)O[C@H](OCC)[C@H]2CCCO)cc1 | i | 1.03 | · | · | · | · | 105.6
O=C(N=Nc1c(O)[nH]c2ccc(Br)cc12)c1ccccc1-n1cccc1 | · | · | -117.2 | 16.4 | -1.4 | -3.9 | 103.2
Cc1cc(S(=O)(=O)N(Cc2ccc(F)cc2)CC2CCCO2)ccc1-n1cnnn1 (stereo unspecified) | i | 0.97 | · | · | -0.6 | -12.7 | 120.2
O=C(NCC(=O)N(c1ccccc1)C(C(=O)NC1CCCCC1)c1cccnc1)c1cccs1 (stereo unspecified) | i | 0.95 | · | · | · | -3.5 | 100.2
O=C(OCC(=O)N1CCCC1)c1ccco1 | i | 0.993 | -3.0 | 113.2 | 1.2 | -7.4 | 103.5
COc1ccccc1NS(=O)(=O)c1cccc(C(=O)N/N=C(\C)c2ccc(-n3ccnc3)cc2)c1 | i | 0.89 | · | · | -4.3 | -1.9 | 98.4
C=CCNC(=S)Nc1ccc2cn[nH]c2c1 | i | 0.84 | · | · | · | · | 100.9
O=c1[nH]c(-c2ccccn2)nc2sc(-c3ccccc3)cc12 | i | 0.66 | 27.8 | 19.2 | · | 0.9 | 101.1
Cc1nc(=O)c(-c2ccccc2)c(C)n1CC1CCCO1 (stereo unspecified) | i | 0.977 | -33.3 | 159.6 | 0.0 | 2.6 | 118.9
CC(=O)OCc1ccccc1Sc1ccccc1C(=O)NCc1ccccc1 | i | 1 | · | · | · | · | 95.6
O=C(NCc1ccccc1)/C(=C/c1ccc(OC(F)F)cc1)c1ccccc1 | i | 0.96 | · | · | -1.9 | -1.8 | 85.6
Cc1cc(=O)cc(C)n1-c1ccc(O)cc1 | i | 1.14 | 31.4 | 65.2 | · | -1.5 | 101.4
CS(=O)(=O)N1CCCC(C(=O)NCCCN2CCOCC2)C1 (stereo unspecified) | i | 0.92 | 54.5 | 116.7 | -1.6 | -0.4 | 186.2
Cc1cccc(C)c1NC(=O)CSCC(=O)c1ccc(O)c(O)c1 | i | 1.04 | · | · | -1.8 | 0.5 | 92.4
CN(CC(=O)Nc1ccccc1[N+](=O)[O-])Cc1ccc(Br)cc1 | i | 0.98 | · | · | · | 0.5 | 100.5
C/C(=N\NC(=O)c1ccoc1C)c1ccccc1 | i | 0.91 | · | · | · | · | 88.7
O=[N+]([O-])c1ccc(C2CNC(c3ccccc3)O2)cc1 (stereo unspecified) | i | 0.93 | 73.3 | 77.7 | -3.3 | -9.9 | 88.4
O=C(Cc1cccc2ccccc12)N/N=C/c1ccc(Sc2cccc3cccnc23)o1 | · | · | 13.0 | 101.6 | -1.6 | 0.3 | 93.7
COc1ccc(Cc2nc(-c3ccc(-n4cccc4)cc3)no2)cc1 | i | 1.38 | · | · | -0.7 | 5.3 | 95.7
O=C(N1CCN=C1SCc1cccnc1)C12CC3CC(CC(C3)C1)C2 | i | 1.12 | · | · | -0.3 | -9.6 | 101.5
CCCOc1ccc(/C=C/C(=O)N2CCN(c3ccccn3)CC2)cc1 | i | 0.9 | -53.9 | 56.1 | · | 14.6 | 78.2
CC(C)CCN1CCN(Cc2cccc3nonc23)CC1CCO (stereo unspecified) | i | 1.03 | -69.6 | 49.8 | · | 0.1 | 79.9
CCOc1ccc(C(=O)NCC(=O)OCc2c(F)cccc2Cl)cc1OCC | i | 0.91 | -15.6 | 106.8 | 0.7 | 1.9 | 102.3
COc1cc(OC)cc(C(=O)NCC(=O)OCC(=O)N2c3ccccc3NC(=O)C2(C)C)c1 | i | 0.97 | · | · | · | 2.7 | 104.2
COc1cccc(NC(=O)Cn2c(=O)n(-c3ccccc3)c(=O)c3oc4ccccc4c32)c1 | i | 0.65 | 36.0 | 105.1 | -1.2 | 0.2 | 102.5
COc1ccc(C2N(c3ccccc3)C(=S)N3CCCN23)cc1 (stereo unspecified) | i | 0.94 | 23.5 | 187.3 | -1.3 | -3.5 | 95.2
CCOC(=O)CC(=O)CSc1nc2ccccc2c(=O)n1-c1ccc(C(=O)NCCOC)cc1 | i | 0.97 | -15.8 | 87.4 | 0.2 | -2.2 | 102.5
N#CC(c1ccccn1)(c1ncc(C(F)(F)F)cc1Cl)N1CCOCC1 (stereo unspecified) | i | 0.86 | 0.0 | 99.5 | -2.1 | -3.0 | 91.9
COC(=O)CNC(=O)COC(=O)C(Cc1ccccc1)NC(=O)c1ccco1 (stereo unspecified) | i | 0.993 | · | · | -3.0 | -9.7 | 98.9
COc1cc(CNc2ccc(N3CCN(C(C)=O)CC3)cc2)ccc1OCc1ccccc1 | i | 0.86 | · | · | · | -0.7 | 99.3
O=C(c1ccco1)N1CCN(S(=O)(=O)N2CCOCC2)CC1 | i | 0.83 | 46.0 | 19.0 | -0.6 | -3.1 | 110.4
CC(=O)N1CCC2(CC1)C(C#N)=C(N)Oc1c2sc2nc(C)cc(C)c12 | i | 0.95 | · | · | -1.5 | -6.2 | 98.9
CCn1cc(C(=O)NCc2ccccn2)c(=O)c2cc(S(=O)(=O)N3CCCCC3)ccc21 | · | · | · | · | 1.3 | 10.1 | 102.4
O=C1Nc2ccccc2C(O)(C(=O)NCc2ccc3c(c2)OCO3)N1c1ccccc1 (stereo unspecified) | i | 0.76 | · | · | -0.9 | -14.0 | 29.6
CCCCN(CCCC)C(=O)C1(P(=O)(c2ccccc2)c2ccccc2)CCC1 | i | 1.05 | · | · | · | · | 115.0
CN1CCN(S(=O)(=O)c2ccc(Oc3ccc(F)c(Cl)c3)nc2)CC1 | i | 1.07 | 5.3 | 110.7 | · | 6.0 | 102.6
CC1(C)CC(=O)C(C=NCCCN2CCOCC2)=C(O)C1 | i | 0.96 | 35.5 | 62.4 | -2.1 | -4.0 | 141.3
